High-throughput results as filed in PubChem BioAssay.
NPYLR7 agonist – activates Aedes aegypti NPYLR7 receptor. HEK293T NPYLR7/Galpha15, GCaMP6s calcium fluorescence. activation, % at 10 µM. 0.15% of 270,000 active; in the data active = activation above about 40%;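 also: 0% = vehicle and 100% = reference agonist at the receptor; some compounds past the cut are filed as inactive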
NPYLR7 agonist max-min – recorded beside NPYLR7 agonist, whose call it bears; activation, %; measured here: Max-Min RFU normalised activation; some inactives read as strong as hits;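 span of the calcium signal over five minutes; 0% = vehicle and 100% = native peptide agonist; compound fluorescence can raise it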
* hit, by the source's call. Only part of the results is shown (hit frequency here may not be typical).

SMILES	NPYLR7 agonist	NPYLR7 agonist max-min
CC(=O)c1ccc(-c2cnc3c(NC=O)cc(-c4ccccc4N(C)C)cn23)cc1	38	27
Cc1cccc(-c2ccc(NC(=O)C3CCN(C(=O)c4ccc(F)cc4)CC3)cc2)c1	-2	-5
Cc1noc(C)c1CSCC(=O)OC(C)C(=O)N1CCNC1=O (centres undefined)	9	5
COCCCN(Cc1ccc(C(O)(c2ccccc2)c2ccccc2)o1)Cc1ccccc1F	-4	1
CC1=NNC(=O)C1CCNc1cc(C)nc2nc(C(F)(F)F)nn12 (centres undefined)	-11	-11
COc1cccc(-c2cccc(-c3ccc(NC(=O)C(Cl)(Cl)Cl)cc3)n2)c1	3	5
Cc1cccc(CC(=O)N2CCC(n3c(C(F)(F)F)nc4cc(C)ccc43)CC2)c1	4	1
CC(=O)Oc1c(-c2ccc(NC(=O)C3CC3)cc2)c(-c2ccc(F)cc2)nn1-c1cc(C)ccc1C	17	22
CCOC(=NCc1ccccn1)NC(=O)c1ccc(C)cc1	-3	0
CC(=O)Nc1cccc(NC(=O)CSc2ccc(NC(=O)C(C)C)nn2)c1	-1	-2
NC(=O)Cc1ccc(OCC(=O)NCCC2CCCC2)cc1	-7	-7
Cc1ccc(-c2cc(C(F)(F)F)n3ncc(C(=O)Nc4cc(Cl)ccc4C)c3n2)cc1	-7	-13
COc1cccc(CCNc2c(Cc3ccccc3)c(C)nc3ncnn23)c1	0	-5
CC(C)C(Nc1ncnc2c1CCNC2)c1nccn1C (centres undefined)	1	5
COCCN(Cc1nccn1Cc1cccc(Cl)c1)C(=O)C1CCCC1	17	14
O=C(Nc1cccc(Br)c1)C1CCN(c2ncccn2)CC1	0	-2
O=C(Cc1c[nH]c2cc(Cl)ccc12)NC(c1nccs1)C1CC1 (centres undefined)	0	-14
O=C(NCCN1CCCCC1)C(C1CCCC1)N1CCN(C(=O)c2ccc3c(c2)OCO3)CC1 (centres undefined)	-5	2
COCc1cc(C)nc(OCC(=O)N/N=C\c2cccc(O)c2)c1C#N	-3	-8
COc1ccc(C(=O)NC2CCC(C)CC2)c2ccccc12 (centres undefined)	-3	-2
Cn1nnnc1Sc1ccc(S(C)(=O)=O)cc1[N+](=O)[O-]	4	13
O=C1NCC2(CCCN(C(=O)Cc3ccc4c(c3)OCO4)C2)O1 (centres undefined)	19	15
CC(Nc1nc(CN2CCN(C(=O)c3ccco3)CC2)nc2ccccc12)c1ccc(F)cc1 (centres undefined)	36	17
COc1cc(CNC(C)c2ccc(CC(C)C)cc2)ccc1OCC#N (centres undefined)	6	4
CC(=O)Nc1sc(C)c(C)c1C(c1ccncc1)N1CCOCC1 (centres undefined)	3	-2
Remaining list, next part
SMILES	NPYLR7 agonist	NPYLR7 agonist max-min
COc1cccc(CN2CCCn3cccc3C2c2cccc(C)c2)c1OC (centres undefined)	-7	-1
Cc1cccnc1CN1CCN(C(=O)[C@H](N)CC(C)C)CC1	2	36
O=C(O)CCCC(=O)c1c[nH]c2ccccc12	-2	3
COc1ccc(NC(=S)NNP2(=O)C=C(c3ccccc3)OC(c3ccccc3)=C2)cc1	-4	-8
COc1ccc(C(=O)Nc2c(N)nc(SCC(=O)N3CCN(c4ccccc4)CC3)[nH]c2=O)cc1	-5	-2
Cc1cccc(-c2c(-c3ccccc3)ncn2CCN2CCOC2=O)c1C	-2	-13
CCC(c1cnn(C)c1)n1cnc(-c2ccccc2)c1-c1cnc(OC)nc1 (centres undefined)	-2	-6
O=C1C2COCC1CC(C(=O)N(Cc1ccccc1)CC(F)F)C2 (centres undefined)	8	6
COC(=O)c1ccc(NC2CCc3ccccc32)nn1 (centres undefined)	9	7
CC(C)(C)c1ccc2oc(=O)n(C3CCN(C(=O)c4ccc(F)cc4F)CC3)c2c1	5	2
O=[N+]([O-])c1cccc(CN2CCN(c3ccccn3)CC2)c1	2	0
Cn1cc(C(C)(O)CNS(=O)(=O)CCc2ccccc2)cn1 (centres undefined)	6	4
O=C(Nc1ccccc1)N1CCc2ccccc2C1	-11	-19
CCc1c(C)nn(C)c1NC(=O)c1ccc(CN2CCN3CCCC3C2)cc1 (centres undefined)	-1	-2
O=C(O)CCN1C(=O)NC2(CCCCC2)C1=O	5	4
Cc1c(C(=O)N2CCOCC2)c(CC(C)C)nn1-c1ccc([N+](=O)[O-])cc1	20	26
Cc1cc(C)c(S(=O)(=O)N(C)c2ccsc2C(=O)N2CCOCC2)c(C)c1	-3	-2
Cc1nnnn1-c1ccc(CC(=O)N2CCC(=O)NCC2C)cc1 (centres undefined)	-1	-2
O=C(NC1CCCCC1)c1cc(-c2ccccc2F)nn1-c1ccccc1	19	22
O=C(Nc1c2c(nn1-c1cccc(Cl)c1)CS(=O)(=O)C2)C12CC3CC(CC(C3)C1)C2	-2	-4
Cn1c(Cn2cnc([N+](=O)[O-])n2)nnc1SCC(=O)NC1CCCC1	-2	-2
O=C1NC2(O)C(=O)c3ccccc3C2(O)N1 (centres undefined)	2	1
Cc1c(C(=O)NN=Cc2ccc(-c3ccc(Cl)c(C(=O)O)c3)o2)sc(N)c1C#N	0	-4
COC1(C)CC(NC(=O)NC(C)c2nc(C)cs2)C1(C)C (centres undefined)	7	4
CCOc1cc(/C=C2\SC(=S)N(NC(=O)c3ccccc3O)C2=O)ccc1O	59*	64*
Other results follow:
SMILES	NPYLR7 agonist	NPYLR7 agonist max-min
CCc1nc(C)cc(N(C)Cc2cc(-c3cccnc3)no2)n1	4	-7
CC(C)C(=O)N1CCC2(CC1)N=CC1(CCCCC1)S2	24	16
CCOC(=O)c1cn[nH]c1S(=O)(=O)Nc1cc(OC)ccc1OC	0	-3
Cc1cc(Sc2nc(C)c(CC(N)=O)s2)nc(C)n1	17	13
NCc1cccc(/C=C/c2ccccc2)c1	4	2
COc1ccc(/C=C2\C=C(c3ccccc3)N(c3ccc(Cl)cc3Cl)C2=O)cc1	9	13
Oc1cccc2ccc(/C=C/c3ccccc3OC(F)F)nc12	-4	-2
O=C(Nc1nc(-c2ccccc2)ns1)NC1CCN(Cc2ccncc2)CC1	0	-3
COc1cc(/C=C2N=C(/C=C/c3ccccc3)OC/2=O)cc(OC)c1OC	-1	-5
CC(C)CCN(Cc1c(-c2ccccc2F)noc1N1CCOCC1)C(=S)Nc1ccc(F)cc1	14	14
COc1ccc(-c2nnc3ccc(OCCNS(=O)(=O)c4ccccc4)nn23)cc1	-3	-4
CN(C)CCN(C(=O)c1ccc(Br)s1)c1nc2cc3c(cc2s1)OCCO3	-5	-8
COc1cc(Nc2ncc3c(n2)CCN(C(=O)Nc2cccc(F)c2)C3)cc(OC)c1OC	-10	-14
COc1ccc(-c2cc(C(=O)N3CCCC3)c(C)n2-c2ccc(C)cc2)cc1	-3	2
Cc1cc(=O)n(CC(=O)Nc2ccc(-c3ccc(N4CCCC4)nn3)cc2)cn1	-2	-3
O=C1NC2(CCN(C(=O)/C=C/c3ccccc3)CC2)Nc2cc(F)c(F)cc21	-2	-2
Cc1ccc(NC2=CC(=O)N(C)C2=O)cc1	3	6
COc1c(C)cnc(CN2CCC(NC(=O)OC(C)(C)C)CC2)c1C	-3	-3
Cc1ccc(S(=O)(=O)N2CCN(CC(=O)n3nc4ccccn4c3=O)CC2)cc1	1	1
CC(C)(C)OC(=O)N1CCC(NC(=O)C2CCCc3ccn(CCOc4ccccc4)c32)CC1 (centres undefined)	25	12
CC(=O)c1c(C)[nH]c(C(=O)N2CCN(Cc3ccccc3F)CC2)c1C	14	15
CC(C)(C)NC(=O)CNC(=O)c1cccc2ccccc12	-8	-10
Cn1nc2c(c1NC(=O)c1cc(C(F)(F)F)cc(C(F)(F)F)c1)CCC2	5	1
Cc1noc(-c2ccncc2)c1C(=O)NCCc1cccs1	17	17
Cc1ccc2oc3c(c(=O)c2c1)C(c1cccnc1)N(c1cc(C)on1)C3=O (centres undefined)	5	3
(continued)
SMILES	NPYLR7 agonist	NPYLR7 agonist max-min
CN(C)S(=O)(=O)c1cccc(COc2ccccc2C(F)(F)F)c1	4	3
COc1cc(C=C2C(=O)Nc3ccc(Cl)cc32)cc(Cl)c1OC	9	6
CCOC(=O)N1CCN(C(=O)CC(c2cccc(C(F)(F)F)c2)c2c[nH]c3c(CC)cccc23)CC1 (centres undefined)	-1	2
CN1CCC(CNC(=O)CCC(=O)Nc2ccc3c(c2)CCC3)C1 (centres undefined)	0	0
Cc1ccc2oc(C(=O)Nc3ccc(N4CCCC4=O)c(C)c3)cc(=O)c2c1	4	3
CCc1ocnc1C(=O)N(C)CC1Cc2ccccc2CN1C (centres undefined)	-2	0
Cc1cccc(CNC(=O)c2sc(=O)n(Cc3ccccc3F)c2C)c1	12	7
O=C(CC1c2ccccc2CCc2ccccc21)N1CCCC1c1nccs1 (centres undefined)	3	0
CC(=O)N1N=C(c2ccccc2Cl)OC1C(=O)NCCSCc1ccccc1 (centres undefined)	7	1
C=CCN1C(=O)NC(c2cccc(Cl)c2)C2=C1CN(CC(=O)N1CCCC(C(=O)OCC)C1)C2=O (centres undefined)	0	9
CO[C@H]1CN(Cc2c(C)ccc3ncccc23)CC[C@H]1N	9	7
Fc1ccc(OC2CCCN(Cc3cc4n(n3)CCNC4)C2)cc1 (centres undefined)	21	22
C=CCn1c(C)c(C)n2c3c(=O)n(Cc4ccc(C)cc4)c(=O)n(C)c3nc12	-1	2
COc1ccc(Br)c(C(=O)NCc2ccc3ccccc3c2-c2ccccc2)c1	1	-3
CCCN1C(=O)C(c2c(C)[nH]n(-c3ccc(Cl)c(Cl)c3)c2=O)=C([n+]2cccc(CC)c2)C1=O	6	11
Cc1cc(C)c2ccc(/C=C/c3ccccc3N3C(=O)c4ccncc4C3=O)nc2c1O	-1	5
CCCCCOc1ccc(C(=O)NCCN2CCCCC2)cc1OCCCCC	-10	-17
CCc1nc(C)c(C(=O)N2CC[C@@H](c3sccc3C)[C@H](O)C2)o1	7	0
COc1ccc(CCNC(=O)c2c(C)noc2-c2cccs2)cc1OC	7	13
CC(C)(C)n1ncc2c(=O)n(NC(=O)C(c3ccccc3)c3ccccc3)cnc21	2	-2
COc1cc(/C=C2\SC(N)=NC2=O)ccc1Oc1ccc(C(F)(F)F)cc1[N+](=O)[O-]	-16	-21
CC(C)CC(=O)Nc1c(-c2ccc(Cl)cc2)nc2ccccn12	-8	-2
C=CCOC(=O)/C(=C\c1ccc([N+](=O)[O-])cc1)NC(=O)c1ccc(Br)o1	-6	-7
CC1(C)OCC(CNC(=O)NCCc2ccccc2)O1 (centres undefined)	-12	-16
COc1ccc(-c2onc(C)c2C(=O)NCc2ccc(C)o2)cc1	30	13
(further entries)
SMILES	NPYLR7 agonist	NPYLR7 agonist max-min
COc1ccc(CNC(=O)c2sc(=O)n(Cc3ccc(C)cc3)c2C)cc1	20	11
CCn1c(C2CCN(C(=O)CN3CCOc4ccccc4C3)CC2)n[nH]c1=O	4	7
Cc1nc(-c2ccccc2)sc1C(=O)NCCCn1nc(-c2cccs2)ccc1=O	-4	-4
C=CCN(CC(=O)N(CCc1ccc(OC)c(OC)c1)Cc1ccc(C)o1)S(=O)(=O)c1ccc(Cl)cc1	17	12
O=C(NC1CCN(c2ccccc2C(=O)N2CCc3ccccc3C2)CC1)c1ccccc1Cl	12	13
O=C(C1COc2ccccc2O1)N1CCc2onc(-c3cccc(F)c3)c2C1 (centres undefined)	-9	-7
O=C(Nc1ccc(OC(F)(F)F)cc1)c1cccnc1Nc1cccc(C(F)(F)F)c1	-5	-13
CCN(Cc1ccc2c(c1)OCO2)c1nc2ccccc2o1	3	2
CC1COCCN1C(=O)Nc1ccc(Oc2cccc(F)c2)nc1 (centres undefined)	0	-2
O=C(O)c1ccccc1COC1CCOCC1	2	-1
CC(=O)c1cc(CC(=O)NC(C)c2cnn(-c3ccccn3)c2C)cs1 (centres undefined)	6	4
COCCN1C[C@@H]2C[C@@H](C(N)=O)N(C(=O)c3ccc(NC(C)=O)cc3)c3cccc(c32)C1=O	1	5
CC(NC(=O)C(C)(C)C)C1CC2CCC1C2 (centres undefined)	0	1
CCSc1nnc(NC(=O)c2ccc(OC)c(OC)c2)s1	7	7
O=C(NCC(=O)N1CCN(S(=O)(=O)c2ccccc2)CC1)NCc1ccccc1	10	9
Cn1cc(CN(Cc2cc3cc4c(cc3[nH]c2=O)OCO4)C2CC2)cn1	11	7
CCOCCCn1c(SCC(=O)NCc2cccs2)nc2cc(C(=O)OCC)ccc21	1	-3
O=C(Nn1cnc2c(cnn2-c2ccccc2)c1=O)C12CC3CC(CC(C3)C1)C2	3	2
O=C(NCc1cccnc1N1CCCCCCC1)[C@@H]1C[C@@H](O)CN1	0	-2

Gathered by group, those above with two or more sulfur atoms
SMILES	NPYLR7 agonist	NPYLR7 agonist max-min
Cn1nnnc1Sc1ccc(S(C)(=O)=O)cc1[N+](=O)[O-]	4	13
Cc1cc(C)c(S(=O)(=O)N(C)c2ccsc2C(=O)N2CCOCC2)c(C)c1	-3	-2
CCOc1cc(/C=C2\SC(=S)N(NC(=O)c3ccccc3O)C2=O)ccc1O	59*	64*
Cc1cc(Sc2nc(C)c(CC(N)=O)s2)nc(C)n1	17	13
CN(C)CCN(C(=O)c1ccc(Br)s1)c1nc2cc3c(cc2s1)OCCO3	-5	-8
Cc1nc(-c2ccccc2)sc1C(=O)NCCCn1nc(-c2cccs2)ccc1=O	-4	-4
CCSc1nnc(NC(=O)c2ccc(OC)c(OC)c2)s1	7	7
CCOCCCn1c(SCC(=O)NCc2cccs2)nc2cc(C(=O)OCC)ccc21	1	-3

By substructure, the compounds so far containing a COOH group (4)
SMILES	NPYLR7 agonist	NPYLR7 agonist max-min
O=C(O)CCCC(=O)c1c[nH]c2ccccc12	-2	3
O=C(O)CCN1C(=O)NC2(CCCCC2)C1=O	5	4
Cc1c(C(=O)NN=Cc2ccc(-c3ccc(Cl)c(C(=O)O)c3)o2)sc(N)c1C#N	0	-4
O=C(O)c1ccccc1COC1CCOCC1	2	-1
